# Source: PubChem BioAssay
# Mtb H37Rv: Confirmatory growth inhibition assay against Mycobacterium tuberculosis H37Rv, potency (AID 1949); inhibition, % at 10 µg/mL; hits with a dose series show IC50 in µg/mL; most inactive calls were filed without a number and no value below 0 was filed; 100,000 tested, 1.6% active;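 active = confirmed in a dose series; inconclusive = about 50% or more but not retested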;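 also: bacteria grown 7 days with compound before Alamar blue readout; 0% = untreated bacteria and 100% = reference antibiotic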
# * marks the source's active call; other numbers are inactive results; i = inactive; ? = inconclusive. The list is partial; count on the stated rates, not on these rows.
SMILES,Mtb H37Rv
CCc1ccccc1NS(=O)(=O)c1ccc(OC)c(OC)c1,i
O=C(CN(c1ccccc1)S(=O)(=O)c1ccccc1[N+](=O)[O-])Nc1cccc(F)c1,i
Cc1ccc(NC(=O)CSc2ncccn2)cc1Cl,i
Cc1nnc(SCC(=O)N2C(C)CCCC2C)n1-c1ccc(F)cc1 (centres undefined),i
CCN(CC)S(=O)(=O)c1ccc(OC)c(NC(=O)C2CC(=O)N(c3ccc(C)cc3)C2)c1 (centres undefined),i
COc1ccc(C(=O)NNC(=O)Nc2cccc(C(F)(F)F)c2)cc1OC,i
Cc1ccc2c(Cl)c(C(=O)Nc3nc4ccc(S(C)(=O)=O)cc4s3)sc2c1,i
CN(C)C(=O)Oc1ccc(C(=O)c2ccccc2)cc1,i
O=C(Nc1ccc(Cc2ccc(NC(=O)C3CCCO3)cc2)cc1)C1CCCO1 (centres undefined),i
COC(=O)CC1C(=O)NCCN1C(=O)Nc1ccc(Cl)c(Cl)c1 (centres undefined),i
CCNC(=O)c1c(NC(=O)COc2cccc3ccccc23)sc2c1CCCC2,i
CC(=O)Nc1ccc(NC(=O)CSC2=NC(c3ccccc3)CC(=O)N2)cc1 (centres undefined),i
O=C(c1cccc(Cl)c1)c1ccc2c(c1)OCCO2,3%
O=C(c1cccc(COc2ccccc2Br)c1)N1CCCCCC1,1%
COC(=O)c1ccccc1NC(=O)CN(c1c(C)cccc1C)S(C)(=O)=O,i
O=[N+]([O-])c1cnn(Cc2ccccc2)c1,i
CCOc1cccc(C(=O)Nc2cc(OC)c(OC)cc2C(=O)O)c1,i
Cc1ccccc1OCCCOc1ccc(Cl)c2cccnc12,4%
CSc1ccccc1NC(=O)CN(c1ccccc1)S(=O)(=O)N(C)C,i
Cc1ccc(S(=O)(=O)N2CCOCC2)c(C)c1C,i
CCN(CC)C1CC(=O)N(c2cccc(C(F)(F)F)c2)C1=O (centres undefined),i
c1coc(CNCCc2ccc3c(c2)OCO3)c1,i
O=C(NCc1ccc(F)cc1)c1cccc(Br)c1,i
COc1ccc(-c2cc(C(F)F)n3ncc(C(=O)Nc4cccnc4)c3n2)cc1,i

# 3 structures out of the list, arranged by formula weight, falling:
SMILES,Mtb H37Rv
COc1ccc(-c2cc(C(F)F)n3ncc(C(=O)Nc4cccnc4)c3n2)cc1,i
CCOc1cccc(C(=O)Nc2cc(OC)c(OC)cc2C(=O)O)c1,i
CCN(CC)C1CC(=O)N(c2cccc(C(F)(F)F)c2)C1=O (centres undefined),i

# (list continues)
SMILES,Mtb H37Rv
COc1cc(N2C(=O)c3cccc4c([N+](=O)[O-])ccc(c34)C2=O)ccc1-n1nc(C)cc1C,?
CCOC(=O)c1ccc(NC(=S)NC(NC(=O)CC(C)C)C(Cl)(Cl)Cl)cc1 (centres undefined),i
O=C(CSc1nc(-c2ccccc2)cs1)N1CCOCC1,i
O=[N+]([O-])c1ccn(Cc2cccc(Cl)c2)n1,3%
O=C(CSc1nc2ccccc2s1)N1CCN(c2ccc(F)cc2)CC1,i
CS(=O)(=O)N1CCC(C(=O)N2CCN(c3ccccc3F)CC2)CC1,i
CCOc1ccc(C(=O)NC(=S)Nc2cccc(C(=O)O)c2C)cc1[N+](=O)[O-],4%
Cc1ccc(C2OC(=O)c3ccccc32)cc1F (centres undefined),i
O=C(O)c1cc2nc(C3CC3)cc(C(F)(F)F)n2n1,i
O=C(CSc1nnc(-c2ccccc2)o1)NCc1ccco1,?
O=C1NC(=O)N(c2ccccc2)C(=O)/C1=C/c1ccc(O)c(O)c1,2%
CCc1ccc(N2C(=O)CC(N3CCC(C(=O)OC)CC3)C2=O)cc1 (centres undefined),i
COc1ccc(OC)c(S(=O)(=O)n2c(=O)n(S(=O)(=O)c3cc(OC)ccc3OC)c3cc(C)ccc32)c1,i
COc1ccc(Cc2nnc(NC(=O)CSc3ccccc3)s2)cc1,i
COC(=O)C(CC(C)C)NC(=O)c1cc(OC)c(OC)c(OC)c1 (centres undefined),i
Cc1cc(NC(=O)c2ccc([N+](=O)[O-])cc2)ccc1NC(=O)c1cccs1,12%
O=C1NC2=C(C(=O)CCC2)C(c2ccccc2F)N1 (centres undefined),i
COc1cccc(/C=N\NC(=O)Cn2cnc3ccccc32)c1O,i
O=C(CSc1nccc(=O)[nH]1)NC(c1ccccc1)c1ccccc1,i
COC(=O)c1c(NC(=O)CCN2C(=O)c3ccccc3C2=O)sc2c1CCCC2,i
CCc1cc(=O)oc2cc(OS(=O)(=O)c3ccccc3)c(Cl)cc12,i
COC(=O)c1cc(NC(=O)Cc2coc3ccc4ccccc4c23)cc(C(=O)OC)c1,i
CS(=O)(=O)N(CC(=O)NCc1ccncc1)c1ccc(I)cc1,i
CS(=O)(=O)c1ccc(S(=O)CC(=O)Oc2ccc(C3CCCCC3)cc2)c([N+](=O)[O-])c1 (centres undefined),50%

# Fetched by compound from above, 3 records:
SMILES,Mtb H37Rv
O=C1NC2=C(C(=O)CCC2)C(c2ccccc2F)N1 (centres undefined),i
COc1ccc(Cc2nnc(NC(=O)CSc3ccccc3)s2)cc1,i
COc1ccc(OC)c(S(=O)(=O)n2c(=O)n(S(=O)(=O)c3cc(OC)ccc3OC)c3cc(C)ccc32)c1,i

# (next part)
SMILES,Mtb H37Rv
O=C(CCCN1C(=O)c2cccc3cccc(c23)C1=O)N1CCc2ccccc2C1,i
Cc1cccc2nc(CNc3ccc(F)cc3)cn12,i
O=C(CCC1CCCC1)Nc1ccc(F)cc1,i
CC(=O)N(C)c1ccc(NC(=S)Nc2cccc3ccccc23)cc1,i
CC(C)NS(=O)(=O)c1ccc(OCC(N)=O)cc1,i
Cc1ccccc1OCC(=O)Nc1cccc(N(C)S(C)(=O)=O)c1,i
Cc1cc(=O)oc2cc(OCc3cccc(C(F)(F)F)c3)ccc12,0%
CCC(C)c1ccc2oc(-c3ccc(NC(=S)NC(=O)c4ccco4)cc3)nc2c1 (centres undefined),i
COc1cc(NC(=O)c2cccc(NC(=O)c3ccccc3)c2)c(OC)cc1Cl,9%
Cn1nccc1C(=O)Nc1ccc(CC#N)cc1,i
Cc1ccc(S(=O)(=O)CCc2nc3ccccc3s2)cc1C,i
O=C(CSc1nnc2ccccn12)N1c2ccccc2CCc2ccccc21,2%
CCc1ccccc1OCC(=O)Nc1sc2c(c1C(N)=O)CCCC2,i
CN(C)c1ccc(-n2c(CCC(=O)O)ccc2-c2ccccc2)cc1,i
Cc1cc2oc(C(=O)Nc3ccccc3C(F)(F)F)c(C)c2cc1C,i
CC(=O)c1n[nH]nc1Nc1nc(C)cc(C)n1,2%
CCCc1nc2ccccc2n1Cc1ccccc1F,i
O=C(Nc1ccc(Cl)cc1C(F)(F)F)c1ccc([N+](=O)[O-])o1,2.4µg/mL*
Cc1ccc(S(=O)(=O)N2CCN(C(=O)N(c3ccccc3)c3ccccc3)CC2)cc1C,i
CC/C(CC(C)(C)c1ccccc1)=N\O,1%
COC(=O)c1ccc(NC(=O)Cn2cc(C=O)c3cc(Br)ccc32)cc1,i
Cc1cc(Cl)ccc1OC(C)c1nnc(NC(=O)OCC(C)C)s1 (centres undefined),i
CSc1ccc(C2C(C(=O)OCC3CCCO3)=C(C)NC3=C2C(=O)CC(c2cccs2)C3)cc1 (centres undefined),1%
C=CCSc1nc2ccc(I)cc2c(=O)n1CC,1%
O=C(NCc1ccco1)Nc1ccncc1,i
CC(C)(CNS(=O)(=O)c1ccc(Cl)cc1)CNS(=O)(=O)c1ccc(Cl)cc1,2%
Cc1ccc(OCc2ccc(C(=O)Nc3ncc(Br)s3)o2)cc1C,1%
CCOc1ccc(NC(=O)C2CC(=O)N(c3ccc(Br)cc3)C2)cc1 (centres undefined),i
COC(=O)c1ccc(Oc2ncnc3sc(C)c(-c4ccc(F)cc4)c23)cc1,i
O=[N+]([O-])c1ccccc1S(=O)(=O)N1CCN(c2ncccn2)CC1,i
S=C(NCCc1c[nH]c2ccccc12)Nc1ccc(Nc2ccccc2)cc1,2.8µg/mL*
CS(=O)(=O)N1CCN(c2nc(-c3ccccc3)cs2)CC1,i
COc1ccc(S(=O)(=O)N2CCC(C(=O)Nc3ccc(C(C)C)cc3)CC2)cc1,i
O=C(COc1ccc(Cl)cc1)NC1CCCCCCC1,0%
C=CCNc1cc(N2CCN(S(=O)(=O)c3ccc4ccccc4c3)CC2)ccc1[N+](=O)[O-],i
Cc1cc(Br)cc(C)c1OCC(=O)Nc1cccc([N+](=O)[O-])c1C,i
CCOC(=O)C1=C(C)NC(=S)NC1c1cccc(OC)c1O (centres undefined),i
COc1cc(C=O)ccc1OCCc1ccccc1,i
Cn1c(=O)c2ncn(CC(=O)Nc3cc(C(F)(F)F)ccc3N3CCOCC3)c2n(C)c1=O,0%
O=C(CC(NC1CCCCC1)C(=O)O)Nc1ccc(F)cc1 (centres undefined),i
Cc1ccc(S(=O)(=O)N2CCCC(C(=O)N3CCc4ccccc4C3)C2)cc1 (centres undefined),i
Cc1ccc2oc(C(=O)Nc3ccc(C(F)(F)F)cc3[N+](=O)[O-])c(C)c2c1,i
Cc1c(C(=O)Nc2ccccc2)sc2ncn(CCc3ccccc3)c(=O)c12,11%
COc1ccc(/C=C/C=C(/C#N)c2ccc(F)cc2)cc1,1%
COc1ccccc1C(=O)Nc1nnc(SCc2ccc(C)cc2)s1,i
CCOC(=O)c1cnc2ccc(C(=O)OC)cc2c1NCCOCCO,i
Cc1ccc(C(=O)Nc2ccc(Cl)cn2)o1,i
Cc1ccc(SCc2ccc(C(N)=O)cc2)cc1,2%

# Exported as labelled records: entries from further up.
Structure: COc1ccccc1C(=O)Nc1nnc(SCc2ccc(C)cc2)s1
  Mtb H37Rv = i
Structure: Cn1c(=O)c2ncn(CC(=O)Nc3cc(C(F)(F)F)ccc3N3CCOCC3)c2n(C)c1=O
  Mtb H37Rv = 0%
Structure: COc1cc(C=O)ccc1OCCc1ccccc1
  Mtb H37Rv = i
Structure: Cc1ccc(C(=O)Nc2ccc(Cl)cn2)o1
  Mtb H37Rv = i

# (listing goes on)
SMILES,Mtb H37Rv
CCN(CC)CC(=O)Nc1sc2c(c1C(=O)Nc1ccccc1C(=O)OC)CCC2,i
CCCCC(=O)Nc1ccc(NC(=S)NC(=O)c2cc3ccccc3cc2OC)cc1OC,i
CCOC(=O)N1CCN(C(=O)CN(c2ccc(Br)cc2)S(C)(=O)=O)CC1,i
CCOCCC(=O)Nc1cc(Cl)c(C(C#N)c2ccc(Cl)cc2)cc1C (centres undefined),4%
O=C(Cc1cccc2ccccc12)Nc1ccc(C(=O)NCc2ccccc2)cc1,i
CC(=O)Nc1ncc2c(n1)CC(c1ccco1)CC2=O (centres undefined),i
Cc1ccnc(NC(=O)COc2ccc(C(C)(C)C)cc2Br)c1,5.6µg/mL*
O=C(C(=O)c1ccc(O)cc1)c1ccccc1,i
NC(=O)CCn1c(=O)oc2ccccc21,i
COc1ccc(OC)c(NC(=O)c2ccccc2N(C)S(=O)(=O)c2ccc(C)cc2)c1,2%
Cc1cccc(N(CC(=O)Nc2cccc([N+](=O)[O-])c2)S(=O)(=O)c2ccccc2)c1C,i
O=C(Nc1cccc(NC(=S)NC(=O)c2ccccc2F)c1)c1cc2ccccc2o1,i

# The closing three compounds of the part above are carried over, then new ones follow:
SMILES,Mtb H37Rv
COc1ccc(OC)c(NC(=O)c2ccccc2N(C)S(=O)(=O)c2ccc(C)cc2)c1,2%
Cc1cccc(N(CC(=O)Nc2cccc([N+](=O)[O-])c2)S(=O)(=O)c2ccccc2)c1C,i
O=C(Nc1cccc(NC(=S)NC(=O)c2ccccc2F)c1)c1cc2ccccc2o1,i
O=C(NCc1cccs1)c1csc2ccccc12,5%
Cc1ccc(C(=O)Nc2ncc(Cc3cccc(Cl)c3Cl)s2)cc1,i
C=CCn1c(SCC(=O)Nc2ccc(F)cc2)nnc1-c1ccccc1,i
CC12CCC(C(=O)Nc3ccccc3Cl)(c3nc4ccccc4nc31)C2(C)C (centres undefined),i
COC(=O)c1cc(C(=O)Nc2ccc(F)cc2F)cc([N+](=O)[O-])c1,i
COc1ccc(C(=O)O)cc1NC(=S)NC(=O)c1cccc(I)c1,i
O=C(Nc1cccc(NC(=O)c2ncn[nH]2)c1)c1cccc(Cl)c1,i
CCCCC(=O)Nc1cccc(NC(=O)c2ccccc2Br)c1,i
COc1ccc(C)cc1N(CC(=O)Nc1ccc(Br)cc1F)S(C)(=O)=O,i
O=C(CC1Sc2ccccc2NC1=O)Nc1cccc(Cl)c1Cl (centres undefined),i
CC(Oc1cccc(Cl)c1)C(=O)NC(c1ccccc1)c1ccccc1 (centres undefined),i
CCCCNCCCOc1cc(C)cc(C(C)C)c1,39%
CN(C)S(=O)(=O)N1CCN(C(=O)c2cccs2)CC1,1%
COC(=O)C(Cc1ccc(O)cc1)NC(=O)C12CC3CC(CC(C3)C1)C2 (centres undefined),5%
CC(=O)C(Sc1nc(N(C)C)nc(N(C)C)n1)C(=O)Nc1ccccc1 (centres undefined),i
Cc1cc(C)c(S(=O)(=O)N2CCCCC2)cc1N(C)S(=O)(=O)c1ccc(Cl)cc1,i
COc1ccc(C(=O)Nc2cc(-c3nc4cc(C)ccc4o3)ccc2Cl)cc1[N+](=O)[O-],i
Cc1cc(C)cc(C(=O)NC(=S)Nc2cccc(NC(=O)c3ccco3)c2)c1,i
CS(=O)(=O)N(CC(=O)Nc1ccc(F)cc1F)c1ccc(Cl)cc1,i
C=CCn1c(N)cc(=O)nc1SCC(=O)Nc1ccc(C)cc1,1%
CCc1cccc(C)c1NC(=O)CSc1nnc(Cc2ccccc2)n1-c1ccc(C)c(C)c1,i
Cc1ccc(C(=O)Nc2sc3c(c2C(=O)N2CCOCC2)CCCC3)cc1,i
CS(=O)(=O)N(CCc1ccccc1)CC(=O)N1CCN(Cc2ccccc2)CC1,i
CCOC(=O)C1=C(C)NC(C)=C(C(=O)OCC)C1c1cn(-c2ccccc2)nc1-c1ccco1,i
COc1ccc(OC)c(N(CC(=O)Nc2ccccc2SC)S(=O)(=O)c2ccccc2)c1,13%
O=C(c1sc2ccccc2c1Cl)N1CCc2ccccc21,2%
CCCc1ccc(Oc2c(-c3ccc(OCC)cc3O)n[nH]c2C)cc1,6%
